Cruzain inh Det = cruzain (T. cruzi) inhibition with detergent | Potency, µM, for inactives: max response, negative = inhibition, hits mostly inhibitors | purified cruzain, Z-FR-AMC fluorescence, 0.01% Triton | AID 1478 | actives 0.43% (n = 200,000) | P25779; active = well fitted curve in the direction sought with a large enough effect; inconclusive = small, poorly fitted or top-dose-only effect, or another doubt; inactive = no such curve, though single readings can be large; an effect the other way counts as inactive or inconclusive;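 note: plate controls were neutral wells for no effect and buffer without enzyme for full effect; nearly all actives have a fitted effect of over 40% in size; top concentration of the series not given in the record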
Target sequence (P25779 123-467 limits assumed): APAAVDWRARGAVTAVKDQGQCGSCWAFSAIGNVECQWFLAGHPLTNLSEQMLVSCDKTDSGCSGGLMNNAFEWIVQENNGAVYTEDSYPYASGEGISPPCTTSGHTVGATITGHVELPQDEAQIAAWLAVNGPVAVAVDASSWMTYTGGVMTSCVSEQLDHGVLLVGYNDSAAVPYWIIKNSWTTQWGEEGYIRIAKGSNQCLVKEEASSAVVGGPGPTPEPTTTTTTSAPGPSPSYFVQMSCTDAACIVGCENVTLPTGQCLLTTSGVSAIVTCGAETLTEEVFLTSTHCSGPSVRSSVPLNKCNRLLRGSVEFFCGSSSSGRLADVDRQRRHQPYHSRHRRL
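Detergent-containing run (0.01% Triton X-100) in acetate buffer pH 5.5 with 5 mM DTT: enzyme at 1.5 nM final, 15 min compound preincubation at room temperature, then 2 uM Z-FR-AMC substrate. Activity taken as 60 s fluorescence increase at 360/450 nm.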
Lassa entry inh = inhibitors of Lassa virus binding or cell entry; Lassa virus pseudotype entry inhibition, cell reporter; control for the full effect not named in the record; Potency, µM (titrated, usually from 37.9 µM), without a hit: at the top dose activity change, negative = inhibition, actives largely listed as inhibitors; actives 1.2% (n = 300,000); AID 540256; active means well fitted inhibition curve with a large enough effect; inconclusive means small, poorly fitted or top-dose-only effect, or effect the other way; inactive means flat fitted curve, though single readings scatter; tested in HEK293 cells; note: % is set by controls: 0 for no effect and ±100 for the full control effect; nearly all actives have a fitted effect of over 50% in size; luciferase read-out
MARV entry inh = inhibitors of Marburg virus binding or cell entry | Marburg virus pseudotyped entry inhibition, cell reporter; control for the full effect not named in the record; about a third of the inactives were read at about 46 µM | Potency, µM (top dose mostly 37.8 µM), for inactives: top-dose activity change, negative = inhibition, usual class: inhibitors | actives 1.8% (n = 300,000); active = well fitted inhibition curve with a large enough effect; inconclusive = small, poorly fitted or top-dose-only effect, or effect the other way; inactive = flat fitted curve, though single readings scatter; tested in HEK293 cells; about a fifth of its hits are not listed in these tables; note: % is set by controls: 0 for no effect and ±100 for the full control effect; luciferase read-out
NS1 function inh = influenza NS1 inhibition | S. cerevisiae slowed by influenza A NS1, growth recovery by OD600 | Potency, µM (highest dose often 46.1 µM), for the others: at the top dose activity, positive = more growth | actives 0.4% (n = 270,000) | AID 2326; note: actives are rising curves; nearly all actives have a fitted effect of over 50% in size
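OD600 was taken as the measure of yeast growth restored by compound in an NS1-expressing S. cerevisiae strain. Cells had been washed out of glucose medium and diluted 1:100 into galactose -URA medium, pH 6.0.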
Cruzain inh noDet = blocks cruzain activity in detergent-free assay | Potency, µM, for the others: max response, negative = inhibition, hits mostly inhibitors | purified cruzain, Z-FR-AMC fluorescence, no detergent | AID 1476 | actives 2.3% (n = 200,000) | P25779; active = well fitted curve in the direction sought with a large enough effect; inconclusive = small, poorly fitted or top-dose-only effect, or another doubt; inactive = no such curve, though single readings can be large; an effect the other way counts as inactive or inconclusive;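 note: plate controls were enzyme without inhibitor for no effect and buffer without enzyme for full effect; nearly all actives have a fitted effect of over 40% in size; top concentration of the series not given in the record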
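Detergent-free condition (0.00005% Triton X-100) in acetate buffer pH 5.5 with DTT. 1.5 nM enzyme and compound were pre-mixed 15 min, then 2 uM Z-FR-AMC substrate added; reaction progress from fluorescence change between first and third reads (60 s).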
RE007 growth inh = less growth of the S. pombe RE007 Vpr strain | S. pombe RE007 Vpr strain, BacTiter-Glo ATP luminescence, 24 h; control for the full effect not named in the record | Potency, µM (top dose mostly 92.2 µM), for the others: top-dose activity change, negative = less growth | actives 0.21% (n = 360,000); active = well fitted falling curve with a large enough effect; inconclusive = small, poorly fitted or top-dose-only effect; inactive = no such curve, though single readings can be large or run the other way;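 note: % is set by controls: 0 for no effect and ±100 for the full control effect; nearly all actives have a fitted effect of over 50% in size; the assay follows cell death caused by Vpr and the record does not say whether a fall means rescue or toxicity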
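Fission yeast RE007 carrying one integrated HIV-1 vpr copy, seeded at OD 0.01 in PMG+AL medium with 23 nL pinned compound. Grown 24 h at 30 degrees; viability read by BacTiter-Glo luminescence after 5 min.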
SARS PLP yeast = inhibitors of SARS-CoV papain-like protease in yeast; S. cerevisiae expressing SARS-CoV PLpro, growth rescue; control for the full effect not named in the record; Potency, µM (series often up to 32.9 µM), inactives show top-dose activity, positive = growth rescue; actives 0.19% (n = 330,000); note: 0% is about no effect; nearly all actives have a fitted effect of over 55% in size; growth read by luminescence after 48 h
2A StopGo = lowers the luciferase signal of an FMDV 2A StopGo reporter; actives 1.2% (n = 410,000); AID 1159524; human cells with a luciferase reporter of 2A StopGo recoding; control for the full effect not named in the record; Potency, µM (highest dose often 57.9 µM), without a hit: at the highest dose signal change, negative = less light; active = well fitted falling curve with a large enough effect; inconclusive = small, poorly fitted or top-dose-only effect; inactive = no such curve, though single readings can be large or run the other way; tested in HEK293T cells; note: % is set by controls: 0 for no effect and ±100 for the full control effect; nearly all actives have a fitted effect of over 45% in size; luciferase light after 4 h
* hit, by the source's call; ? = inconclusive; · = not tested or not shown; & = joins results of further samples; [ ] = dose if it differs, or a comment. Unless noted, calls come from the whole dose curve; as a rule, active means well fitted rising curve with a large enough effect; inconclusive means small, poorly fitted or top-dose-only effect; inactive means no such curve, though single readings can be large or run the other way. Potency is the fitted concentration of half-maximal effect.

entry | mol | Cruzain inh Det | Lassa entry inh | MARV entry inh | NS1 function inh
1 | COCCNC(=S)N1CCCC(CO)C1 (stereo not drawn) | · | 10%[46.1 µM] | 8%[46.1 µM] | 0%
2 | C[C@@H](C(=O)Nc1nc(-c2ccccn2)cs1)N1C(=O)C2CCCCC2C1=O (stereo partly drawn) | -13% | ? | 2% | -1%
3 | CN(C)c1ccc(CN(C(=O)c2cc3ccccc3oc2=O)C2CCS(=O)(=O)C2)cc1 (stereo not drawn) | · | · | · | -4%
4 | O=S(=O)(c1c(F)cccc1F)N1CCCC2CCCCC21 (stereo not drawn) | · | 2% | -7% | ·
5 | Cc1nn(-c2ccccc2)c(N)c1C(c1ccccc1)c1c(C)nn(-c2ccccc2)c1N | -3.1% | 7% | 9% | 8%
6 | CC(=O)Nc1ccc(S(=O)(=O)N(C)c2ccccc2)cc1 | 2.8% | 5% | ? | -24%
7 | Cc1cccc(NC(=O)c2ccc(-n3cnc4cccnc43)cc2)c1C | -5.5% | 25%[46.1 µM] | · | ·
8 | CCN(CC)CCn1c(NCc2ccc(OC)cc2)nc2ccccc21 | -0.9% | -22% | ? | 2%
9 | CCC(=O)NC(=S)Nc1ccc(NC(=O)c2ccccc2[N+](=O)[O-])cc1 | -5.2% | -3% | 30% | 1%
10 | CCOc1ccc(NC(=O)C(NC(=O)C2CCC(C)CC2)C(C)C)cc1 (stereo not drawn) | 0.3% | 7%[46.1 µM] | 13%&13%[46.1 µM] | ·
11 | COc1ccccc1-c1nnc2sc(C3CCCCC3)nn12 | -2.8% | ? | ? | -14%
12 | O=C(Cn1ncn2c(cc3cc(F)ccc32)c1=O)NC1CCCCC1 | -0.3% | · | -15%[46.1 µM] | ·

entry | Cruzain inh noDet | RE007 growth inh | SARS PLP yeast | 2A StopGo
1 | · | 5% | 0% | -2%
2 | 4% | -10% | -3% | 0%
3 | · | 5% | 0% | 41%[activator]
4 | · | 9% | -17% | -8%
5 | 16% | 12% | 4% | -8%
6 | -7% | -8% | 11% | -12%
7 | 3% | · | · | 10%
8 | -13% | -3% | · | -20%
9 | -13% | · | 7% | 20%
10 | 9% | -2% | -2% | -16%&-2%
11 | 0% | 17% | -3% | ?
12 | 1% | · | · | -9%

More records:
entry | mol | Cruzain inh Det | Lassa entry inh | MARV entry inh | NS1 function inh
13 | O=C(NCc1ccccc1)C1=C[C@H](c2csc3ccccc23)C[C@H](OCc2ccc(CO)cc2)O1 | · | · | · | 15%
14 | CCOC(=O)N1CCC(NC(=O)c2cnn3c(C(F)(F)F)cc(-c4cccc(OC)c4)nc23)CC1 | -3.5% | -18% | 2%&-18% | -3%
15 | CCOc1ccccc1Nc1nnc(SC(C)C(=O)Nc2nc(-c3ccccc3)cs2)s1 (stereo not drawn) | -4.6% | 6.3µM* | 3.5µM* | 3%
16 | Cc1cc(C)c(NC(=O)c2nc3ccccc3nc2N2CCCCC2)c(C)c1 | 2.1% | 29%[46.1 µM] | · | ·
17 | CCN(CC)S(=O)(=O)c1ccc(N2CCOCC2)c(NC(=O)c2ccc3c(c2)OCCO3)c1 | · | ? | 1% | ·
18 | CCOC(=O)C1CCN(C(=O)C2(NC(=O)Nc3ccccc3C)CCCCC2)CC1 | · | 1% | 1%[46.1 µM] | -11%
19 | O=C(O)C1CCC(N2C(=O)C3C4CCC(C4)C3C2=O)CC1 (stereo not drawn) | · | 17%[46.1 µM] | -13%[46.1 µM] | -4%
20 | Cc1ccccc1CSCCNC(=O)Nc1ccccc1 | · | · | · | -46%
21 | CC(=O)c1ccc(N2CCN(C(=O)c3ccc(Cl)c(NC4=NC5CS(=O)(=O)CC5S4)c3)CC2)cc1 (stereo not drawn) | · | 15%[46.1 µM] | 10%[46.1 µM] | -9%
22 | CC(NC(=O)c1ccco1)C(c1cccs1)N1CCN(c2ccccc2)CC1 (stereo not drawn) | -3.4% | · | · | -53%
23 | Cn1c(=NC(=O)C2=NNC(=O)CC2)sc2ccccc21 | · | 6% | 0%[46.1 µM] | ·
24 | CN(CC(=O)NCc1ccccc1)Cc1ccc(Cl)cc1 | · | · | · | 5%

entry | Cruzain inh noDet | RE007 growth inh | SARS PLP yeast | 2A StopGo
13 | · | 5% | 2% | 4%
14 | ? | -8% | -1% | 11%
15 | 7.9µM* | -1% | -1% | -17%
16 | -4% | · | · | ?
17 | · | 4% | -9% | 0%
18 | · | -9% | -3% | 12%
19 | · | -10% | -1% | 10%
20 | · | -13% | -1% | 28%
21 | · | 17% | -3% | 2%
22 | -14% | 4% | 3% | -16%
23 | · | 4% | 0% | 66%[activator]
24 | · | -4% | 0% | -23%

(next part)
entry | mol | Cruzain inh Det | Lassa entry inh | MARV entry inh | NS1 function inh
25 | O=C(O)c1ccc(-c2nc(-c3ccccc3)c(-c3cccs3)[nH]2)cc1 | · | 12%[46.1 µM] | 11%[46.1 µM] | 8%
26 | Clc1ccc(-c2noc(CN3CCN(c4ccccc4)CC3)n2)cc1 | -0.4% | 7% | 3% | -5%
27 | CN(C)S(=O)(=O)c1ccc2c(c1)Cc1cc(S(=O)(=O)N(C)C)ccc1-2 | · | 0%[46.1 µM] | -6%[46.1 µM] | 4%
28 | O=C(Nc1ccc2c3c(cccc13)CC2)c1ccc(Br)o1 | -7.6% | 18% | 17% | 5%
29 | O=C(COC(=O)c1ccccc1C(=O)N1CCN(c2ccccc2)CC1)Nc1ccc(F)cc1 | -2.7% | -41% | ? | -4%
30 | O=c1cc(Cc2nnc(SCc3ccccc3)n2-c2ccc(Cl)cc2)[nH]c(=O)[nH]1 | · | -10% | 3% | ·
31 | CN(C)c1ccc(C=NNC(=O)c2cccnc2)cc1 | · | 5% | ? | ·
32 | c1coc(CNc2nc(-c3cccs3)cs2)c1 | · | ? | ? | ·
33 | O=C(c1ccc2c(=O)n(Cc3ccc4c(c3)OCO4)c(=S)[nH]c2c1)N1CCC2(CC1)OCCO2 | -2.5% | -7% | -2%&-9% | -36%
34 | CCc1ccc(C(=O)NC2=NC(c3ccccc3F)CC(=O)N2)cc1 (stereo not drawn) | -3.3% | -14%[46.1 µM] | -25%[46.1 µM] | ·
35 | Cn1c2ccccc2c2cc(/C=C(\NC(=O)c3ccccc3)C(=O)O)ccc21 | · | ? | 6%[46.1 µM] | 1%
36 | COCCn1c(C)cc(C(=O)COC(=O)c2ccc([N+](=O)[O-])o2)c1C | · | -30%[46.1 µM] | 21%[46.1 µM] | ·

entry | Cruzain inh noDet | RE007 growth inh | SARS PLP yeast | 2A StopGo
25 | · | 0% | 1% | -14%
26 | -1% | ? | -6% | -6%
27 | · | 3% | -2% | -19%
28 | 13% | 17% | -5% | 41%[activator]
29 | 22% | -10% | 0% | -28%
30 | · | -6% | -2% | 8%
31 | · | 26% | · | 18%
32 | · | -14% | -5% | 49%[activator]
33 | ? | -7% | 7% | -2%
34 | 12% | · | · | 3%
35 | · | -2% | 1% | 9%
36 | · | -3% | -14% | 1%

(further entries)
entry | mol | Cruzain inh Det | Lassa entry inh | MARV entry inh | NS1 function inh
37 | O=C(CCn1c(=S)[nH]c2ccccc2c1=O)NCCc1ccccc1 | · | -13% | 3%[46.1 µM] | ·
38 | COc1ccc(CC(CC(=O)O)C(=O)NCc2ccccc2)cc1 (stereo not drawn) | · | 13%[46.1 µM] | ? | 0%
39 | COc1ccc(Cl)cc1S(=O)(=O)Nc1cccc(-c2ccc(N3CCOCC3)nn2)c1 | -1.2% | -7%[46.1 µM] | · | ·
40 | CCOc1ccc(C(C)=O)cc1COC(=O)CNC(=O)c1cccs1 | · | -1% | 19% | ·
41 | COc1ccc(Nc2oc(COc3ccccc3OC)nc2C#N)cc1 | -7.5% | ? | ? | 16%
42 | CCc1ccc(CNC(=O)c2ccc3c(c2)NC(=O)C(N2CCOCC2)S3)cc1 (stereo not drawn) | · | · | · | 8%
43 | CCCNC(=O)N[C@@H](Cc1ccccc1)C(=O)OC | 0.4% | 22% | -8% | 0%
44 | Cc1ccc(-c2csc(N3CCN(c4cc5c(cc4Cl)nc(C(C)N)n5CCCO)CC3)n2)cc1 (stereo not drawn) | · | · | · | 24%
45 | OCC[C@@H]1C[C@@H](O)[C@H](O)[C@@]2(CCc3ccccc3O2)O1 | · | · | · | -3%
46 | N#Cc1ccccc1NC(=O)C(=O)NCCc1csc2nc(-c3cccc(F)c3)nn12 | -1.0% | 29%[46.1 µM] | · | ·
47 | COc1cc(OC)cc(N(C(=O)CNC(=O)c2ccco2)C(C(=O)NCC2CCCO2)c2ccccc2)c1 (stereo not drawn) | · | -23%[46.1 µM] | ? | 1%
48 | O=C(NCc1ccccc1)c1cc(Sc2cccc(Cl)c2)nc2ccccc12 | 1.0% | 27%[46.1 µM] | · | ·

entry | Cruzain inh noDet | RE007 growth inh | SARS PLP yeast | 2A StopGo
37 | · | 18% | 2% | -16%
38 | · | 33% | 0% | -19%
39 | -4% | · | · | 28%
40 | · | -17% | · | 0%
41 | -3% | 7% | 24% | 11%
42 | · | -2% | 4% | -23%
43 | -3% | 10% | 6% | 10%
44 | · | 14% | 6% | -2%
45 | · | -8% | -1% | -1%
46 | -7% | · | · | -13%
47 | · | 17% | -1% | -10%
48 | 1% | · | · | 8%

Compound profiles (already shown).
Listed for `CCCNC(=O)N[C@@H](Cc1ccccc1)C(=O)OC` : Cruzain inh Det = 0.4%; Lassa entry inh = 22%; MARV entry inh = -8%; NS1 function inh = 0%; Cruzain inh noDet = -3%; RE007 growth inh = 10%; SARS PLP yeast = 6%; 2A StopGo = 10%
Listed for `COc1ccc(Cl)cc1S(=O)(=O)Nc1cccc(-c2ccc(N3CCOCC3)nn2)c1` : Cruzain inh Det = -1.2%; Lassa entry inh = -7%[46.1 µM]; MARV entry inh = ·; NS1 function inh = ·; Cruzain inh noDet = -4%; RE007 growth inh = ·; SARS PLP yeast = ·; 2A StopGo = 28%
